Assay outcomes: PubChem BioAssay, several laboratories
RecA intein inh = blocks M. tuberculosis RecA intein splicing | 290,000 tested, 0.75% active | P9WHJ3 | cell-free RecA intein splicing, fluorescence | inhibition, %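 (about 9 µM by stock and volumes)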; in the data active means inhibition above about 30%; inconclusive means no clear call, values can overlap the other calls;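 further: 0% = vehicle wells and 100% = reference inhibitor control wells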
Target sequence (P9WHJ3 whole entry, looked up): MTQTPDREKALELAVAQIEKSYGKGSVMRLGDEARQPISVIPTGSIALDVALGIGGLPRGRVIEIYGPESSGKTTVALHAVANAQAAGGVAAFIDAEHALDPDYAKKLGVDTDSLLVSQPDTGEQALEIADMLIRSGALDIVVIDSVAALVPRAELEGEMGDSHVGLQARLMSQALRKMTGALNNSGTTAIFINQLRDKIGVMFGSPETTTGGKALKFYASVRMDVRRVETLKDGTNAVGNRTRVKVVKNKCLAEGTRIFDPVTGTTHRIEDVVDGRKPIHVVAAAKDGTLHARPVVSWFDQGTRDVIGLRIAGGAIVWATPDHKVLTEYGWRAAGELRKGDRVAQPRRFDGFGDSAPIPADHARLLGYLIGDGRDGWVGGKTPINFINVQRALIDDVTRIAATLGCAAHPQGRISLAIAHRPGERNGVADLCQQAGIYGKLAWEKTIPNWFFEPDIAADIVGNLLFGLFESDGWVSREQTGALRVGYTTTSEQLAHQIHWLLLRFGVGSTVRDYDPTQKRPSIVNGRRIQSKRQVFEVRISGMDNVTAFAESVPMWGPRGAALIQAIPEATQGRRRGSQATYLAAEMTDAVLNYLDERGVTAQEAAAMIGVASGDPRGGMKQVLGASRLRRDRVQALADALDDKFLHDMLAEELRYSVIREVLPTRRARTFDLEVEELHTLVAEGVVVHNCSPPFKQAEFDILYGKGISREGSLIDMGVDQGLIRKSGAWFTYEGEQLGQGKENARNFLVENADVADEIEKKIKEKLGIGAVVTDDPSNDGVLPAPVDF
Mtb growth = M. tuberculosis H37Rv growth inhibitors, H37Rv strain (AID 1626). M. tuberculosis H37Rv growth inhibition; higher % means a stronger effect. one-dose inhibition, % at 10 µM; IC50 in µM for titrated hits. 220,000 tested, 0.95% active;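 active means confirmed in a dose series; inconclusive means inhibition above 80% but not taken into the dose series; inactive means below 80% or under 30% at every dose of the series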;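 further: bacteria incubated seven days before Alamar blue readout; 0% = bacteria only wells and 100% = bacteria with antibiotic wells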
Mtb bLac sens = beta-lactam sensitization of Mtb H37Rv; 330,000 tested, 0.27% active; M. tuberculosis H37Rv growth with meropenem, percent inhibition; hits of this screen are not shown here; AID 434955; inhibition, % at 25 µM;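 active means about 74% or more and at least 40 points above the plate without the antibiotic, then above 30% in a dose series; inconclusive means first-round hits that could not be retested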;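 further: growth measured after seven days incubation then overnight dye step; 0% = bacteria only wells and 100% = bacteria with antibiotic; twin plates without the antibiotic show which effects depend on it; some results filed as inactive read as strong as hits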
Arbovirus inh = antivirals against arbovirus infection; arbovirus infection cell-based antiviral screen; inhibition, % at 10 µM; 200,000 tested, 0.37% active;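 active means inhibition from about 30%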;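 further: bluetongue infection of BSR cells; cell survival read as ATP light after 72 h; 0% = infected wells without compound and 100% = uninfected wells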
YopH PTP inh = inhibitors of Yersinia enterocolitica YopH tyrosine phosphatase; inhibition, %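 (about 10 µM by stock and volumes)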; fluorescence Ex485/Em525; 140,000 tested, 0.16% active; AID 898;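 active means inhibition of 50% or more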;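 further: controls were vehicle for no effect and minimum signal wells for full effect; inactives centre near -20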
Arbovirus inh repeat = recorded beside Arbovirus inh, whose call it bears; inhibition, %; measured here: 10K subset replicate screen; many hits read low in the repeat;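 first of two repeat runs on a subset; 0% = infected and 100% = uninfected wells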
Active calls of the source: *; ? = inconclusive; . = no result given. Only part of the results is shown; the hit share may differ from the screen's.

SMILES	RecA intein inh	Mtb growth	Mtb bLac sens	Arbovirus inh	YopH PTP inh	others
Cc1ccc(N(C(=O)C2CCC(=O)N2)C2(C(=O)NC3CCCCC3)CCCCC2)cc1 (stereo unspecified)	.	-2%	0	0	-73	Arbovirus inh repeat=6
O=C(Cn1c(-c2ccccn2)nc2ccccc21)N/N=C/c1cccnc1	1.3	.	-6	.	.
CCC(=O)NNc1ncnc2ccccc12	0.8	7%	2	2	-22
CCOC(=O)COc1ccc(C2CC(C)=NN2c2ccccc2)cc1 (stereo unspecified)	4.4	?	99	1	.
Cc1ccsc1CNC(=O)c1c(-c2ccccc2)noc1C	-0.7	-4%	-6	.	.
CP(=O)(Nc1ccc(Cl)cc1)c1nc2c(s1)CCCC2 (stereo unspecified)	-2.5	-4%	-7	.	.
CCOc1ccccc1C(=O)N1CCC(C(=O)c2ccc(F)cc2)CC1	-0.7	1%	-3	2	29
O=C(O)C1=C(OCc2ccc(F)c(F)c2)C(=O)NCC1	15	5%	-7	7	.
Cc1c(C(=O)O)oc2ccc(S(=O)(=O)N3CCCCC3C(=O)O)cc12 (stereo unspecified)	.	-6%	4	6	-45	Arbovirus inh repeat=3
O=C(c1cnc2sccn2c1=O)N1CCc2ccccc2C1	3.9	-13%	15	-6	11
CCOC(=O)c1[nH]c(C)c(C(=O)OCC(=O)N2CCc3ccccc32)c1C	.	-1%	-6	6	-2
O=C(Nc1ccccc1N1CCCC1)c1cccnc1	.	1%	4	8	-2
Cn1nc(C(C)(C)C)cc1C(=O)Nc1nc2c(s1)C(=O)CC(C)(C)C2	-4.0	-1%	3	3	-36
COc1ccc(C(=S)N2CCOCC2)cc1OC(=O)c1ccccc1Cl	2.0	.	-4	.	.
CCO[C@@H]1OC(C(=O)O)=C[C@H](C2CCCCC2)[C@H]1CCCO	1.7	7%	-17	0	.
Cc1cc(Cl)c2cc3ccccc3cc2n1	1.5	-5%	8	.	.
Cc1noc(C)c1COC(=O)c1cccc(S(=O)(=O)N2CCOCC2)c1	0.5	.	-9	.	.
COc1ccc(OC)c(-c2csc(N(Cc3ccco3)C(=O)c3cccs3)n2)c1	2.3	-5%	2	8	-33
CCOC(=O)Cc1cc(=O)n2[nH]cc(-c3ccc(Cl)cc3)c2n1	-2.4	10%	95	7	.
Cc1cc(NC(=O)CSCC(=O)Nc2ccccc2OC(F)F)no1	-1.1	.	-5	.	.
COc1ccc(CN(Cc2cccn2C)S(=O)(=O)c2cccc(C(F)(F)F)c2)cc1	9.8	8%	4	.	.
CC(C)CNC(=O)CSc1nnc(CN2CCCCCC2=O)n1-c1ccccn1	1.4	1%	1	3	-33
Cn1c(CNC(=O)CNC(=O)Cc2ccc(Cl)cc2)cc(=O)n(C)c1=O	-2.1	.	-1	.	.
CCOC(=O)C1CCN(C(=O)c2ccc(Cl)c(NC3=NC4CS(=O)(=O)CC4S3)c2)CC1 (stereo unspecified)	-3.8	.	-1	1	-31	Arbovirus inh repeat=3
O=C(Nc1ccccc1)Nc1ccccc1C(=O)NCc1ccccc1	2.8	3%	-1	-3	-13

Brought forward from above: seven entries, followed by the next part.
SMILES	RecA intein inh	Mtb growth	Mtb bLac sens	Arbovirus inh	YopH PTP inh	others
CCOC(=O)Cc1cc(=O)n2[nH]cc(-c3ccc(Cl)cc3)c2n1	-2.4	10%	95	7	.
Cc1cc(NC(=O)CSCC(=O)Nc2ccccc2OC(F)F)no1	-1.1	.	-5	.	.
COc1ccc(CN(Cc2cccn2C)S(=O)(=O)c2cccc(C(F)(F)F)c2)cc1	9.8	8%	4	.	.
CC(C)CNC(=O)CSc1nnc(CN2CCCCCC2=O)n1-c1ccccn1	1.4	1%	1	3	-33
Cn1c(CNC(=O)CNC(=O)Cc2ccc(Cl)cc2)cc(=O)n(C)c1=O	-2.1	.	-1	.	.
CCOC(=O)C1CCN(C(=O)c2ccc(Cl)c(NC3=NC4CS(=O)(=O)CC4S3)c2)CC1 (stereo unspecified)	-3.8	.	-1	1	-31	Arbovirus inh repeat=3
O=C(Nc1ccccc1)Nc1ccccc1C(=O)NCc1ccccc1	2.8	3%	-1	-3	-13
Cn1c(SCC(=O)NCc2cccs2)nnc1-c1cccs1	2.6	-4%	-7	6	-15
CCOC(=O)C1(CC2CC2)CCN(Cc2ccc(O)c(Cl)c2)CC1	-0.5	2%	-1	-22	.
N/C(=N\OC(=O)c1ccc(=O)n(Cc2ccccc2)c1)c1ccccn1	2.0	-6%	4	14	.
O=c1ccc(-c2ccc(S(=O)(=O)Nc3ccc(F)cc3)s2)n[nH]1	4.3	.	-3	.	.
CN(C(=O)CSc1nnc(COc2ccccc2F)n1N)C1CCCCC1	-2.0	.	-4	.	.
O=C(O)C1=C[C@@H](c2ccccc2)C[C@@H](OCc2ccc(CO)cc2)O1	-0.3	-8%	-11	1	.
Cc1ccc(NC(=O)CC2SCCNC2=O)cc1Cl (stereo unspecified)	-0.6	-11%	-4	5	-16
CCOC(=O)c1[nH]c2ccc(OC)cc2c1NC(=O)CCN1CCc2ccccc2C1	2.8	-14%	-4	25	-37
CCCCCC(=O)Nc1ccc(-c2nnc3n2CCCCC3)cc1	-1.7	.	1	.	.
COc1cc2c(cc1NC(=O)COC(=O)c1ccc(C(C)(C)C)cc1)oc1ccccc12	2.3	0%	0	-6	-36
Cc1oc2ccc(OC(=O)COc3c(F)c(F)c(F)c(F)c3F)cc2c1C(=O)OC(C)C	8.5	?	89	3	-11
CC(C)c1cc(C(=O)O)c2ccccc2n1	-6.8	-3%	-2	.	.
CCOC(=O)C1=C(C)Nc2ncnn2C1c1c[nH]c2ccccc12 (stereo unspecified)	2.1	-6%	-4	30	12
CCOC(=O)N1CCC(NC2CCCCCCC2)CC1	-0.6	-9%	-1	-13	-26
CCOC(=O)C1C(c2ccc(O)cc2)NC(=O)NC1(O)C(F)(F)F (stereo unspecified)	-4.0	.	-10	.	.
CCOc1ccc(N2C(=O)C3C(c4ccccc4)=NN(c4ccccc4)C3C2=O)cc1 (stereo unspecified)	-12	56%	1	10	-28
CCC(CC)NC(=O)COc1ccc(OC)cc1C=O	1.9	2%	3	4	.
O=C1C(C=NC2CC2)=C(O)c2ccccc21	3.8	-7%	-2	-3	11
CN(C(=O)c1ccccc1C(=O)OCC(=O)NCc1cccs1)C1CCCCC1	2.7	-5%	-5	-1	.
CCCCC(=O)N/N=C/c1c(O)n(CCc2ccc(OC)c(OC)c2)c(=O)[nH]c1=O	-2.9	3%	-2	-10	-18
CCCCCn1c(CN(C)Cc2ccccc2)nc2c1c(=O)n(C)c(=O)n2C	2.6	-5%	.	-18	-127
CC(C)Cn1c(SCC(=O)NCc2ccc(Cl)cc2)nnc1-c1cccc(S(=O)(=O)N2CCOCC2)c1	0.1	-7%	-3	4	-24
CCN(CC)c1ccc(C(NC(C)=O)NC(C)=O)cc1	-1.1	3%	23	-4	-31
CCOc1ccc(/C=N/NC(=O)c2nnn(-c3nonc3N)c2CN2CCC(C)CC2)cc1	-2.2	.	6	.	.
CCc1ccc2c(COn3nnc4ccc(S(=O)(=O)N(C)C)cc43)cc(=O)oc2c1	3.1	-2%	-7	-7	-45

Going on with the list.
SMILES	RecA intein inh	Mtb growth	Mtb bLac sens	Arbovirus inh	YopH PTP inh	others
CCOC(=O)c1[nH]c2ccccc2c1N=C(C)N(CC)CC	2.0	.	-11	7	-40
COc1cccc(CCc2nnc(CCC(=O)N3CCCC3c3nccs3)o2)c1 (stereo unspecified)	4.0	6%	-4	3	.
Cc1cccc2c1N(CCOc1ccccc1)C(=O)C2=O	-2.1	5%	1	-4	.
O=C(CCc1nc2ccccc2[nH]1)N1CCN(C(=O)c2ccco2)CC1	2.1	.	1	6	-16	Arbovirus inh repeat=-1
O=c1[nH]c(=O)n(Cc2ccco2)c2c1C(C(F)(F)F)(C(F)(F)F)N=C(c1ccc(F)cc1)N2	-1.4	-3%	-2	14	-15
COc1ccc(/C=N/Nc2ccc(C(=O)O)cc2)c(OC)c1OC	-5.1	.	19	.	.
O=C(NCCCN1CCOCC1)c1ccc(Sc2ccc(Br)cc2)c([N+](=O)[O-])c1	-2.2	0%	3	-2	-17
O=C(NCc1ccccc1Cl)c1ccc2c(c1)SC1=NS(=O)(=O)CCN12	-0.8	6%	-7	-1	.
COc1ccc(N(CC(=O)NC2CCCC2)C(=O)CCC(=O)Nc2cc(C)on2)c(OC)c1	2.0	-2%	-9	9	-25
COC(=O)c1cc(OC)c(OC)cc1NC(=O)CCC1CCCC1	5.2	16%	91	12	23
Cc1ccn2c(=O)c(C(=O)NCCCN3CCCC3=O)c(O)nc2c1	0.2	.	4	.	.
CCn1c(=O)[nH]c2ccccc2c1=O	-1.6	-5%	4	3	-68
COc1ccccc1C(=O)NC(=O)Cn1nc(C)c([N+](=O)[O-])c1C	-2.9	.	-1	.	.
Cc1cc(C(=O)NC(C)c2ccncc2)no1 (stereo unspecified)	0.6	-10%	-17	-2	-39	Arbovirus inh repeat=-1
Cc1nn(-c2ccccc2)c(C)c1NC(=O)COC(=O)[C@@H](NC(=O)c1ccccc1)C(C)C	0.3	.	-6	.	.
CCOc1cc(/C=N/NC(=O)C(=O)NC)cc(Br)c1O	-0.4	2%	1	-2	-29
CCCn1ncc(C(=O)O)c1C	-5.9	1%	3	-6	-10
N#CCCn1cc(/C=C2\NC(=S)N(c3ccccc3)C2=O)c(-c2ccc(F)cc2)n1	0.8	78%	7	0	.
Cc1ccsc1/C=N/N1CCN(c2ccccc2)CC1	-0.7	2%	-13	-7	-36
CC(C)N(C(=O)COC(=O)c1ccc(Cl)nc1)C(C)C	-2.5	0%	6	-1	.
O=S(=O)(Nc1nccs1)c1ccc(NCc2cc(Br)cc(Br)c2O)cc1	4.9	-6%	1	.	.
O=C(CSc1ncnc2nc[nH]c12)NCCc1ccccc1	0.7	-3%	-16	2	-2
Cc1ccc(CNC(=O)CCNS(=O)(=O)c2ccc3c(c2)c(=O)n(C)c(=O)n3C)cc1	-1.7	-4%	-3	-2	-23
O=C(CSc1n[nH]c(-c2ccccc2O)n1)NC1CCCCC1	-2.2	.	0	.	.
O=C(CCN1C(=O)S/C(=C\c2ccc(Cl)cc2)C1=O)Nc1ccc(C(=O)O)cc1	7.7	.	1	.	.

Other results follow.
SMILES	RecA intein inh	Mtb growth	Mtb bLac sens	Arbovirus inh	YopH PTP inh	others
CN(C)C(=O)CSc1nnc([C@@H](N)Cc2ccccc2)o1	1.1	-15%	-13	0	-16
COc1ccc(C2c3ccc4ccccc4c3Oc3ncn(Cc4ccco4)c(=N)c32)cc1OC (stereo unspecified)	22	9%	86	-23	-33
NS(=O)(=O)c1ccc(N/N=C/c2cn(-c3ccccc3)nc2-c2cccs2)c([N+](=O)[O-])c1	1.2	35%	-5	-33	.
Cc1c(C(=O)Nc2c(F)cccc2F)sc2ncn(CC(=O)N3CCCCC3)c(=O)c12	2.0	.	2	.	.
COCCn1c(SCC(=O)Nc2cccc(NC(C)=O)c2)nc2c([nH]c3ccccc32)c1=O	1.1	.	-4	.	.
Cc1c(NC(=O)c2ccccc2N)cccc1C(=O)O	-3.0	-14%	12	5	-32
O=C(Nc1ccc(F)cc1)c1ccc(Cn2cnnn2)cc1	-4.2	-7%	-13	8	.
CCCCCn1c(SCC(=O)c2ccccc2)nc2cc(C(=O)NCc3ccco3)ccc2c1=O	.	1%	.	-5	-41
CSc1nc(O)c(C(c2ccccc2)c2c(O)nc(SC)[nH]c2=O)c(=O)[nH]1	0.4	.	-17	.	.
Cc1ccccc1NC(=O)CCN1C(=O)c2ccccc2C1=O	-1.4	.	-8	.	.
CCCOc1ccc(CNC(=S)NCc2ccc(OC(C)C)cc2)cc1	5.0	?	84	-3	-19
Cc1ccccc1NC(=O)N1CCCN(c2ccc(C#N)cn2)CC1	-2.0	.	-6	.	.
COc1ccc(Nc2nc(C)cc(=O)[nH]2)cc1	.	-16%	-3	10	-17
CCOc1ccc(N2C(=O)CC(SC(=NC)Nc3cccc(F)c3)C2=O)cc1 (stereo unspecified)	-2.2	3%	-20	-9	-26
CCCOc1ccc(N2CC(C(=O)NCCc3ccc(OC)c(OC)c3)CC2=O)cc1 (stereo unspecified)	1.5	-4%	-2	3	.
CN(C)C(=O)NC(NC(=S)Nc1ccccc1)C(Cl)(Cl)Cl (stereo unspecified)	-0.1	3%	-7	11	.
O=c1cc(-c2ccccc2)c2ccccc2[nH]1	-2.1	-9%	-6	-12	-40
NS(=O)(=O)c1cccc(NC(=O)CC2(CC(=O)O)CCCC2)c1	0.6	.	4	.	.
COC(=O)c1nc(-c2ccc(C)cc2)oc1N(C)C	1.0	-8%	-1	-6	-1
Cc1ccc(S(=O)(=O)N2CCOCC2)cc1NC(=O)COC(=O)Cc1cccs1	4.9	.	-5	.	.
CCCn1c(SCC(=O)Nc2cc(Cl)ccc2Cl)n[nH]c1=O	2.8	2%	-3	17	.
